# INS promoter inh – inhibitors of insulin promoter-driven GFP, primary screen, imaging, TRM-6 cells (human fetal islet line), eGFP reporter, cell count; reporter expression induced with tamoxifen; inhibition, % at 2 µM; 130,000 compounds, 0.9% hits;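 active means inhibition above the mean plus 3 SD, with well images judged a real hit on visual review, cut at about 60% in these data, passing the limit was not always enough; inconclusive means inhibition over the cutoff but images rejected on review; inactive means inhibition not above the cutoff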
# RGS16-Gao – modulators of RGS16 binding to Galphao, primary screen, biochemical, human proteins, multiplexed bead flow cytometry | bead-based flow cytometry RGS16-Galphao binding, fluorescence; actives lie on both sides | binding response (% of control), % at 10 µM | 220,000 compounds, 0.38% hits;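 active means below 25% or above 175%, edge rows of some plates excepted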;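 further: Galphao activated by GDP with aluminum fluoride before binding; 100% = wells without compound and 0% = beads without RGS; some results beyond the cut were filed as inactive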
# Target sequence (O15492 whole entry, looked up): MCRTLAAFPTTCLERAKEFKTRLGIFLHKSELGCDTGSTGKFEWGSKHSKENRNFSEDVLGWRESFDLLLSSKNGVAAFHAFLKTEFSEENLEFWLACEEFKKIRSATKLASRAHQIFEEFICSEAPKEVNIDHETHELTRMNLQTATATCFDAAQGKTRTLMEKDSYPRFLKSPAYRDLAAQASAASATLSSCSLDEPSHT
# Target sequence (P09471 whole entry, looked up): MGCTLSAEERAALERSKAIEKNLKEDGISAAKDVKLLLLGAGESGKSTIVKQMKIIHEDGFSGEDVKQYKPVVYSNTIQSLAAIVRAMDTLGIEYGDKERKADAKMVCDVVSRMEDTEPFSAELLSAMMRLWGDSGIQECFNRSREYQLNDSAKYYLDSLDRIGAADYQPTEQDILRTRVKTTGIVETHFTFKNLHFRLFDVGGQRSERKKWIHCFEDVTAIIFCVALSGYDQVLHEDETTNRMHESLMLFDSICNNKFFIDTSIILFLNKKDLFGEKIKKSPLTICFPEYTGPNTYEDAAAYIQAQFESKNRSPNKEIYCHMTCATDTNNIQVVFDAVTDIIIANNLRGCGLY
# HSV replic up – enhancers of HSV replication in host cells, fold increase, host cell viability. HSV replication augmentation in cells. 220,000 compounds, 0.005% hits. maximum fold increase;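 active means peak rise of 1.5-fold or more in the series; inconclusive means self-fluorescent or not available for retest; tested in PC3 cells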;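 further: first round at 10 µM; read as green reporter fluorescence; hits show the peak of a series up to 25 µM; 1 = signal of infected wells without compound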
# PKD1 inh – inhibitors of human PKD1 kinase, biochemical, fluorescence polarization | inhibition, %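 (about 10 µM by stock and volumes)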 | AID 797, 2007 | Serine/threonine-protein kinase D1 (Homo sapiens), Q15139 | PKD1 kinase fluorescence polarization assay | 200,000 compounds, 0.056% hits;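 active means inhibition of 50% or more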;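 further: controls were vehicle for no effect and a reference inhibitor for full effect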
# GALR2 ag – GALR2 receptor agonists, primary screen, cell-based. Galanin receptor type 2 (Homo sapiens), O43603. activation, %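 (tested at 5 µM)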. GALR2-expressing cells, agonist activation read-out. 140,000 compounds, 0.48% hits;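 active means above mean plus 3 SD of all compounds, about 5% in these data, not always enough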;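 further: 0% = vehicle buffer wells and 100% = reference agonist at full effect; tested in CHO reporter cells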
# Target sequence (O43603 whole entry, looked up): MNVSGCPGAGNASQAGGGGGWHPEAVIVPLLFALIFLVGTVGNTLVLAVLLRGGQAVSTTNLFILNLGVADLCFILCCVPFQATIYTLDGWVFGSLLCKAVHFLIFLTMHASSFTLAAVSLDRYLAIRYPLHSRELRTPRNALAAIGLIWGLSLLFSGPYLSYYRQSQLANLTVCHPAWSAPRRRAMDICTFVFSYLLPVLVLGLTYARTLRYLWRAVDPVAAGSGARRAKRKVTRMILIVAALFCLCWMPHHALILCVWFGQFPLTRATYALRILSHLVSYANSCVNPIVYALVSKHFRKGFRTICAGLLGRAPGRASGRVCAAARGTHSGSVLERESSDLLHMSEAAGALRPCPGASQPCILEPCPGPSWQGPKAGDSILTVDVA
# INS promoter inh cell count – also measured in INS promoter inh; calls as there; normalized cell count, %; measured here: cell count, toxicity; reference of the scale not given here;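 cells exposed to compound for 48 h; stained nuclei by imaging scaled within each plate; lower means fewer cells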
# HSV replic up primary fold – also measured in HSV replic up; calls as there; fold increase; compound at 10 µM; measured here: primary screen fold increase 10 uM; tested in PC3 cells;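 GFP signal in the first replicate; 1 = infected wells without compound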
# * marks the source's active call; other numbers are inactive results; i = inactive; ? = inconclusive; · = no result given. Compounds were not picked by outcome; about 1.1% have a hit in one of these screens.
SMILES,INS promoter inh,INS promoter inh cell count,RGS16-Gao,HSV replic up,HSV replic up primary fold,PKD1 inh,GALR2 ag
Cc1ccccc1C(=O)Nc1nnc(-c2ccncc2)o1,·,·,89,i,0.99,1,·
CCCCCCN1CC(O)=C(c2ccccc2)C1=N,-43,105,206,i,0.92,-1,-2.2
O=C(CNC(=O)c1ccncc1)N/N=C/c1cc(Br)ccc1O,-11,136,103,i,0.94,-9,-0.2
C=CCNC(=O)CN1CCC(O)(c2ccccc2)CC1,·,·,103,i,0.91,1,1.1
COc1ccc(CCCc2n[nH]c(=S)o2)c(C)c1,·,·,100,i,0.86,-8,·
COc1ccccc1N1CCN(/N=C/c2cc(OC)c(OC)c(OC)c2)CC1,36,100,99,i,1,0,-0.8
CC(C)=CC(=O)Nc1ccc2c(c1)OCO2,59,137,103,i,0.9,-8,-3.1
O=C(COc1ccc(F)cc1Br)NCc1ccccn1,-21,159,97,i,0.99,-3,-0.1
COc1cccc(C(=O)/C=C/Nc2ccc(NC(C)=O)cc2)c1,-18,81,102,i,1.1,-8,-0.6
CSc1nc2nc(C)c(C/C=C/c3ccccc3)c(=O)n2[nH]1,-26,93,101,i,1.1,1,·
CC(C)CCNc1nnnc2c1sc1nc(N3CCOCC3)c3c(c12)CC(C)(C)SC3,50,68,108,i,0.88,-8,-0.8
Cc1ccc(N2CC3=C(C2=O)C(c2ccccc2)NC(=O)N3C)cc1 (centres undefined),37,69,114,i,0.92,-4,-0.1
N#CCCN1CCN(C(CNS(=O)(=O)c2ccc(Cl)cc2)c2ccccc2)CC1 (centres undefined),·,·,111,i,0.87,-11,-1.1
Cc1cccc(OCCOCCSc2ncccn2)c1,12,131,101,i,0.91,-16,-1.5
COc1ccc(CCNc2cc(C)nc3c(-c4ccc(Cl)cc4)c(C)nn23)cc1OC,·,·,138,i,0.69,11,0.1
COc1cc(-c2nc3ccccc3c(=O)n2N)cc(OC)c1OC,10,100,104,i,0.89,-3,-1.1
CCCCNS(=O)(=O)c1ccc(NC(=O)Cc2ccccc2[N+](=O)[O-])cc1,·,·,100,i,1,-5,·
COCCCN1C(=O)C(O)=C(C(=O)c2ccco2)C1c1ccc(Br)cc1 (centres undefined),13,93,105,i,0.82,3,-1.1
Cc1cc(C)nc(-n2nc(C)cc2NC(=O)COC(=O)CCC(=O)c2cccs2)n1,·,·,106,i,0.95,6,-1.5
CCc1cccc(CC)c1NC(=O)c1ccccc1CCc1ccccc1,·,·,106,i,1.1,-5,-2.2
O=C(COC(=O)c1cccnc1Nc1ccccc1F)NCc1ccc2c(c1)OCO2,·,·,116,i,1.1,-8,-3.0
O=C(COC(=O)c1ccc[nH]c1=O)Nc1ccc2c(c1)OC(F)(F)O2,·,·,102,i,1.1,·,·
CC(C)(C)NC(=O)c1cnn(-c2ccccc2)c1NC(=O)c1ccccc1,0,154,106,i,0.87,-1,-1.0
S=c1[nH]nc(-c2cccnc2)n1-c1ccc2c(c1)OCCO2,·,·,101,i,1,-2,·
C1CCc2c(nc3nnnn3c2NC2CCCC2)C1,25,91,84,i,0.91,-9,-0.5
Cc1[nH]c2c(ccc3ccccc32)c1C1C(CCN)C1(C)C (centres undefined),34,134,104,i,0.68,6,-1.1
O=C(Nc1ccccc1)c1c(F)cccc1F,17,124,106,i,0.87,5,-3.0
Cc1nn(-c2cccc(C(=O)O)c2)c(C)c1[N+](=O)[O-],·,·,97,i,1.1,-5,·
O=C(CN1C(=O)c2cccc3cccc1c23)N1CCc2ccccc2C1,70,96,101,i,0.67,-5,-1.7
O=C(c1ccco1)N1CCN(C(=O)C2Cc3ccccc3CN2S(=O)(=O)c2ccc(F)cc2)CC1 (centres undefined),14,125,101,i,0.91,2,-3.1

# 4 entries from above, sorted by SMILES length, lowest first.
SMILES,INS promoter inh,INS promoter inh cell count,RGS16-Gao,HSV replic up,HSV replic up primary fold,PKD1 inh,GALR2 ag
CC(C)=CC(=O)Nc1ccc2c(c1)OCO2,59,137,103,i,0.9,-8,-3.1
COc1ccc(CCCc2n[nH]c(=S)o2)c(C)c1,·,·,100,i,0.86,-8,·
CCc1cccc(CC)c1NC(=O)c1ccccc1CCc1ccccc1,·,·,106,i,1.1,-5,-2.2
COc1cccc(C(=O)/C=C/Nc2ccc(NC(C)=O)cc2)c1,-18,81,102,i,1.1,-8,-0.6

# Continued:
SMILES,INS promoter inh,INS promoter inh cell count,RGS16-Gao,HSV replic up,HSV replic up primary fold,PKD1 inh,GALR2 ag
COc1ccccc1N(CC(=O)N/N=C/c1ccc(C(=O)O)cc1)S(=O)(=O)c1ccc(C)cc1,·,·,102,i,1,·,·
CNC(=O)COc1ccc(S(=O)(=O)Nc2ccc(OC)cc2)cc1,·,·,134,i,0.89,3,·
CC(NC(=O)Cn1cnnn1)C12CC3CC(CC(C3)C1)C2 (centres undefined),15,66,100,i,0.96,-10,-2.0
COC(=O)c1nn(-c2ccccc2)c(=O)cc1Sc1ccc(Cl)cc1,-122,26,94,i,0.96,1,·
Cc1cccc(NC(=O)NCCN2C(=O)C3C4C=CC(C4)C3C2=O)c1 (centres undefined),·,·,95,i,0.94,-12,-2.5
O=C(NCSc1ccncn1)c1ccccc1,-27,103,80,i,0.87,-20,-0.8
COc1ccc(CCNC(=O)c2ccc3c(SCC(=O)O)c4c(nc3c2)CCCC4)cc1OC,7,101,104,i,0.88,1,·
O=C(CSc1nnc2c(Cl)cc(Cl)cn12)NC1CCS(=O)(=O)C1 (centres undefined),-27,117,99,i,1,-5,-0.7
COc1ccc(CCNC(=O)c2cc(-c3cccs3)on2)cc1OC,-10,114,99,i,1.1,-7,-1.3
CN1CCN(CCCCOc2ccc(F)cc2)CC1,18,107,103,i,0.85,-3,-0.4
O=C(O)c1ccccc1/C=N/NC(=O)C1CCCCC1,·,·,103,i,1,·,·
Cc1ccccc1-c1nc2cc(N)ccc2o1,·,·,93,i,0.83,-15,-0.5
CCN(CC)CCCN1C(=O)C(O)=C(C(=O)c2cc3ccccc3o2)C1c1ccccn1 (centres undefined),·,·,152,i,0.99,4,-2.0
CC1CCC(NC(=O)c2ccc(NC(=O)c3ccc(=O)[nH]c3)cc2)CC1 (centres undefined),22,85,101,·,·,-6,-1.7
CCCOc1ccccc1NC(=O)Nc1ccccc1Cl,-52,98,97,i,0.95,-5,·
COC(=O)c1ccsc1NC(=O)c1ccc(Cl)s1,·,·,100,i,0.98,·,·
c1ccc2c(CNc3ccc(CNc4ncn[nH]4)cc3)cccc2c1,24,130,82,i,0.83,-4,-3.0
CN(C(=O)c1c(Cl)nc2sccn12)C1CCCCC1,-190,80,106,i,0.89,2,-1.5
CCOc1cc(Cl)c(NC(C)=O)cc1OCC,15,164,107,i,0.99,6,-1.3
CN(CCOc1ccccc1)C(=O)c1cc([N+](=O)[O-])cc([N+](=O)[O-])c1,·,·,118,i,1,-3,·
COc1ccccc1OCCC(=O)Nc1nc(C)cs1,·,·,101,i,1.1,·,·
Cc1csc(SCC(=O)Nc2cccc3nsnc23)n1,60,109,102,i,0.73,2,-1.1
COC(=O)c1ccc2nc(C)cc(Nc3ccccc3C)c2c1,·,·,94,·,·,2,·
CCCC1(C(=O)O)NC(c2ccc(OC)cc2O)C2C(=O)N(c3ccc(OC)cc3)C(=O)C21 (centres undefined),·,·,108,i,0.85,-3,0.3
CCc1ccc(-c2cc(C(=O)Nc3ccc(S(=O)(=O)NC(C)=O)cc3)c3ccccc3n2)cc1,·,·,92,i,1,4,-1.0
COC(=O)c1nc(NC(=O)c2ccc(Cl)cc2)n[nH]1,·,·,101,i,0.79,15,0.1
Cc1ccc(OCC(=O)NCCc2c[nH]c3ccccc23)cc1,·,·,101,i,1,-10,·
CC(C)CC(NS(=O)(=O)c1ccccc1)C(=O)O (centres undefined),42,112,104,i,0.94,-1,-0.4
NC[C@H]1O[C@H](O[C@H]2[C@H](O)[C@@H](O[C@H]3O[C@H](CO)[C@@H](O)[C@H](N)[C@H]3O)[C@H](N)C[C@@H]2N)[C@H](N)C[C@@H]1O,23,61,111,i,0.99,-12,-0.7
CCOC(=O)C1CN(S(C)(=O)=O)c2cc(CC(=O)OC)ccc2O1 (centres undefined),·,·,100,i,0.99,-3,·
COCCNC(=O)C(c1ccc(C)o1)N(CC1CCCO1)C(=O)Cn1nnc2ccccc21 (centres undefined),46,79,104,i,0.98,-6,-0.5
O=C(Nc1ccccc1N(C(=O)c1ccco1)S(=O)(=O)c1cccs1)c1ccco1,-7,115,102,i,0.76,-3,-2.8
Cc1ccc(C(=O)C[n+]2cccc3cc(C)ccc32)cc1,i,86,104,i,1.1,4,·
COc1ccccc1NS(=O)(=O)c1cccc(C(=O)NCc2ccco2)c1,18,110,103,i,0.92,10,·
CCOC(=O)Cn1c(-c2ccc(Cl)nc2)nc2ccccc21,-13,112,102,i,1.2,6,-1.5
COc1ccc(C2OCC3(CO2)SC(N)=NC3=O)cc1 (centres undefined),36,135,99,i,0.88,-5,-2.2
CCOc1ccccc1C(=O)N(Cc1ccccc1)Cc1cc2cc3c(cc2[nH]c1=O)OCCO3,-66,146,·,i,0.93,-1,-1.4
CCOC(=O)N1CCN(S(=O)(=O)c2ccc3c(c2)SC(C)C(=O)N3)CC1 (centres undefined),-9,60,99,·,·,2,-1.2
CN(C)S(=O)(=O)c1ccc(C(=O)NCc2cccs2)cc1,-26,93,99,i,0.69,-8,0.3
Cc1cnccc1NC(=O)c1cccs1,·,·,107,i,1,-6,·
CC(C)(C)OC(=O)N1CCC(CNC(=O)c2ccccc2)CC1,·,·,100,i,0.85,·,·
COc1cc(/C=C/C(=O)OCC(=O)c2c(N)n(C)c(=O)n(C)c2=O)ccc1O,24,129,99,i,1.1,1,·
Cn1c(NNC(=O)C(c2ccccc2)c2ccccc2)cc(=O)n(C)c1=O,·,·,30,i,1.1,1,·
CCOc1cc(NC(=S)Nc2cccc(OC)c2)c(OCC)cc1NC(=O)C(C)C,10,73,102,i,0.72,-17,-3.1
C/C(=N/NS(=O)(=O)c1ccc(C)cc1)c1c(O)c2ccccc2oc1=O,·,·,98,i,0.94,·,·
O=C(NCCCn1ccnc1)c1ccc(S(=O)(=O)Nc2ccccc2)cc1,·,·,101,i,1.1,·,·
O=C(O)CS(=O)(=O)c1ccc(Oc2ccc(S(=O)(=O)CC(=O)O)cc2)cc1,·,·,·,i,0.94,-4,-1.3
NC(=S)N/N=C/c1c(O)ccc2ccccc12,·,·,104,i,1.1,·,·
O=C(N/N=C\c1ccco1)c1cncc(Br)c1,25,48,107,i,1,-2,-1.1
COc1ccc(NC(=O)CN2CCN(c3nc(-c4cccc(OC)c4)cs3)CC2)cc1,-362,72,99,i,0.88,0,-3.5
Nc1nccc(-c2ccc(-n3cnc4ccccc43)cc2)n1,·,·,102,i,0.69,2,·
COc1ccc(S(=O)(=O)n2c(CCN3CCOCC3)nc3ccccc32)cc1,-22,117,102,i,0.79,-13,-1.1
COc1ccc(OC)c(S(=O)(=O)Nc2cccc(-c3ccc4nncn4n3)c2)c1,-21,121,101,i,0.94,-1,·
COc1cc2c(cc1OC)/C(=C/C(=O)N1CCOCC1)NC(C)(C)C2,-17,91,105,i,0.96,-13,-1.1
CCN(C(=O)CSc1nnc2c3ccccc3n(CC)c2n1)C1CCS(=O)(=O)C1 (centres undefined),-47,103,101,i,0.9,3,-0.2
CC(=O)c1ccc(-c2nnc(CCC(=O)N(C)Cc3c(C)nc4ccccn34)o2)s1,·,·,103,i,1.1,2,·
Cc1ccc(NC(=O)NC2C(NC(=O)Nc3ccc(C)cc3)N(C)C(=O)N2C)cc1 (centres undefined),-243,54,87,i,0.81,0,-1.2
CCCCOC(=O)n1c(=O)oc2cc(S(=O)(=O)N3CCCCC3)ccc21,38,126,100,i,0.96,-7,-0.5
CCOc1ccc2c(c1)C(c1ccc(C)cc1)=NNC(c1ccc(C)cc1)=N2,0,134,107,?,·,-3,-2.2

# Molecules shown so far that have a tert-butyl group, in the order listed:
SMILES,INS promoter inh,INS promoter inh cell count,RGS16-Gao,HSV replic up,HSV replic up primary fold,PKD1 inh,GALR2 ag
CC(C)(C)NC(=O)c1cnn(-c2ccccc2)c1NC(=O)c1ccccc1,0,154,106,i,0.87,-1,-1.0
CC(C)(C)OC(=O)N1CCC(CNC(=O)c2ccccc2)CC1,·,·,100,i,0.85,·,·

# Screening results deposited in PubChem by several laboratories.
